# PINK1 expr mod – changes PINK1 expression. PINK1 immunofluorescence, high-content cytometry, 24 h. Potency, µM (highest dose often 76.6 µM), without a hit: top-dose activation (PINK1 increase), actives largely listed as activators. 0.2% of 410,000 active; active = well fitted activation curve with a large enough effect; inconclusive = small, poorly fitted or top-dose-only effect; inactive = flat fitted curve, though single readings scatter; cell line not stated here;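 further: potency means the concentration at half of the fitted maximal effect; % of control where 0% means no effect; nearly all actives have a fitted effect of over 65% in size; a mitochondrial uncoupler was the plate control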
#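 Stable cell line treated 24 h with compounds at 5 concentrations (CCCP controls), then fixed and immunostained for PINK1 plus nuclear and cell stains; PINK1 immunofluorescence quantified by laser-scanning microplate cytometry.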
# D2 potentiator – human D2 receptor positive allosteric modulation; DiscoveRx D2 beta-arrestin cells, luminescence, 90 min; 100% = 57 uM dopamine signal; potentiation, % (test concentration not listed); P14416; 0.23% of 360,000 active; active = potentiation of 50% or more; inconclusive = 30% to 50%; inactive = 30% or less;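 further: compound concentration not given in the record; tested on top of an EC20 dose of dopamine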
# Target sequence (P14416 whole entry, looked up): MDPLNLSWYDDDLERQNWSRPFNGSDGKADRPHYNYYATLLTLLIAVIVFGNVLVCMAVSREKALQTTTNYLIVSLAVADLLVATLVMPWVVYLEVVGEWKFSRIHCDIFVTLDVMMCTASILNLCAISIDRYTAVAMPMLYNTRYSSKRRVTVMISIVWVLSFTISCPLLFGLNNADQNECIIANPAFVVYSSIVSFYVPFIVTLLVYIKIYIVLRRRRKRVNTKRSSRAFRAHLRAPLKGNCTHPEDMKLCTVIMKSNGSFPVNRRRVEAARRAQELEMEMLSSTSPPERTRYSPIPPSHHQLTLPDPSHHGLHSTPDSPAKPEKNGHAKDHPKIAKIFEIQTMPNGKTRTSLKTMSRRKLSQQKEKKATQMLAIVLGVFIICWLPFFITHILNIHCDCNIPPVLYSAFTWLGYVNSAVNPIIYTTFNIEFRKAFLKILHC
#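 D2 cells co-treated with compound plus 50 nM dopamine (EC20) for 90 min at 37 deg C to detect potentiation. Beta-arrestin recruitment was read as enzyme-fragment luminescence after 1 h at ambient temperature. Full response was set by 57 uM dopamine.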
# TRPML1 agonist – agonists of human TRPML1 channel; TRPML1-expressing cells, Ca2+ dye fluorescence, FDSS; host cell line not named in the record; reference of the full effect not given here; activation, % (test concentration not listed); AID 624414; 0.12% of 410,000 active; in the data active = activation above about 50%; inconclusive = about 30% to 50%; inactive = below about 30%; further: 0% is about no effect; the text of the record puts the active cut at 80%
# Target sequence (Q9GZU1 whole entry, looked up): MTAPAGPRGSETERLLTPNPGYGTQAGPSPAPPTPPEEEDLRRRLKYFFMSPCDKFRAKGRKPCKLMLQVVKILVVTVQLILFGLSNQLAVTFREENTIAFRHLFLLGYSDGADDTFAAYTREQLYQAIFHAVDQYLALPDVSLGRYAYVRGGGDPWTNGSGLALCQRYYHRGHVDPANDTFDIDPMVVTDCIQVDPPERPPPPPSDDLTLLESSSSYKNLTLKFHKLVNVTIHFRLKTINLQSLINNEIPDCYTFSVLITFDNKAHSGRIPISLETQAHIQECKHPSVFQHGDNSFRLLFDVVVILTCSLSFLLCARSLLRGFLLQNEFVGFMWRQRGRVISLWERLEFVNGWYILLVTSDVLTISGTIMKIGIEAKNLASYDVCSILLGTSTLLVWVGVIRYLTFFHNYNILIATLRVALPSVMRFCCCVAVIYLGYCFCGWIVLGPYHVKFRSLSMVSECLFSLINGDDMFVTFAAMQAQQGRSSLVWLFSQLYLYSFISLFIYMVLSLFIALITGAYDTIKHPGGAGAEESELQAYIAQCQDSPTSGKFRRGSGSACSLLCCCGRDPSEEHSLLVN
#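 In this qHTS format, compounds were pin-transferred onto Ca8-dye-loaded TRPML1-DL cells induced with Tet overnight, and intracellular Ca2+ fluorescence was recorded kinetically for 110 s after a 10 s baseline. A subsequent 4uM final 54-4 (EC80) addition followed by a second 110 s read served as the antagonist phase.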
# Six1-Eya2 blk – inhibitors of human Six1/Eya2 interaction; Q15475+O00167; AlphaScreen GST-Six1/His-Eya2 binding, biochemical; stronger effect = lower value; control for the full effect not named in the record; activity change, % (test concentration not listed); 0.56% of 360,000 active; AID 651725; in the data active = activity change below about -65%; inconclusive = about -30% to -65%; inactive = above about -30%; further: on the % scale 0 is the no-effect control and ±100 the full control effect; compound concentration not given in the record
#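 AlphaScreen luminescence read after one hour at 37 °C in darkness. Pin-transferred compounds met GST-Six1 and His-Eya2 protein (5X stock 250 nM/500 nM) plus glutathione donor and Ni-chelate acceptor beads (5X, 50 ug/mL).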
# CtBP-E1A blk – CtBP/E1A binding inhibition; activity change, % (no concentration beside the values); 0.49% of 340,000 active; AlphaScreen GST-E1A/His-CtBP binding, 1536-well; stronger effect = lower value; control for the full effect not named in the record; in the data active means activity change below about -65%; inconclusive means about -30% to -65%; inactive means above about -30%; further: on the % scale 0 is the no-effect control and ±100 the full control effect; compound concentration not given in the record
#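 Homogeneous bead-based format: GST-tagged E1A captured on glutathione donor beads, His-tagged CtBP on nickel acceptor beads; compounds precede bead addition by 2 h at 37 °C.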
# D2 agonist – agonists of human D2 dopamine receptor (beta-arrestin); P14416; DiscoveRx PathHunter D2 beta-arrestin, luminescence, 90 min; 100% = 57 uM dopamine signal; activation, % (test concentration not listed); 0.084% of 360,000 active; in the data active = activation above about 40%; inconclusive = about 15% to 40%; inactive = below about 15%; further: compound concentration not given in the record; the text of the record calls up to 30% inactive
#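 DiscoveRx PathHunter D2 beta-arrestin cells (2,100/well) attached overnight, then compound-stimulated 90 min at 37 C in HBSS/10 mM HEPES/0.1% Tween-20 buffer; beta-galactosidase complementation read by luminescence after 1 h at ambient temperature. Dopamine 57 uM final (EC100) as control.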
# Numbers without * were called inactive; ? = inconclusive; . = no result given; & = joins results of further samples; [ ] = another dose, or the depositor's remark.
SMILES,PINK1 expr mod,D2 potentiator,TRPML1 agonist,Six1-Eya2 blk,CtBP-E1A blk,D2 agonist
COC(=O)[C@@]1(Sc2ccc(C)cc2)CC(=O)N(c2ccccc2)[C@@H]1c1ccccc1,-1.1%,.,-0.6,-3,-8,.
CC(=O)Nc1cc(C(=O)N2CCN(C)CC2)ccc1Sc1ccc(C)cc1,-1.3%[38.3 µM],-11,-0.4,3,-2,-3.4
Cc1cc(C)c2cc(C(c3nnnn3C3CCCC3)N3CCOCC3)c(=O)[nH]c2c1 (configuration not stated),9.5%[38.3 µM],-3,0.1,4,6,0.7
Cc1cc(NC(=O)c2ccccc2F)n(C(C)(C)C)n1,6.1%,-6,1.7,-2,.,0.3
Cc1cccc(-c2nnc(SCC(=O)N3CCCC3)o2)c1,1.9%,0,-0.1,0,-1,-0.6
Cc1nn(-c2ccccc2)c2sc(C(=O)OCc3nnc(-c4ccccc4)o3)cc12,-1.4%,-9,3.9,1,-1,0.1
COc1cc(OC)cc(C(=O)NNC(=O)CCOc2ccccc2OC)c1,1.4%,-1,0.6,-2,0,-0.8
CCn1nc(C)c(CN2CCCC(CO)(Cc3ccccc3)C2)c1C (configuration not stated),0.8%,1,-0.2,-15,0,-5.3
Cc1ccc(NC(=O)c2cc(-c3ccccc3)nn2-c2ccccc2)c(Br)c1,12%,-12,-0.1,-7,1,-3.6
C=C(C)Cn1c(=O)c2c(nc3n2CCCN3CCc2ccccc2)n(C)c1=O,0.3%,-6,1.1,-14,-23,-2.7
O=C(c1ccc(F)c(S(=O)(=O)N2CCOCC2)c1)N1CCN(c2ncccn2)CC1,1.1%,-5,-0.4,-5,.,-3.8
CCOC(=O)c1cn[nH]c1C(F)(F)F,2.3%,-1,2.9,4,2,1.0
COc1ccc(Cl)cc1NC(=O)C/C(C)=N/NC(=O)COc1ccc(C)cc1,0.7%,-3,-0.6,0,1,-0.1
Cn1c(=O)c2c(O)cc(=O)n(-c3ccccc3)c2n(C)c1=O,-2.0%,-6,0.2,-7,6,-1.5
CCOC(=O)Cc1csc(NC(=O)CSc2nc(N)c3c(C)c(C)sc3n2)n1,4.2%,-5,1.7,-16,-20,0.5

# Three entries from above, set out differently:
molecule	PINK1 expr mod	D2 potentiator	TRPML1 agonist	Six1-Eya2 blk	CtBP-E1A blk	D2 agonist
Cc1cc(C)c2cc(C(c3nnnn3C3CCCC3)N3CCOCC3)c(=O)[nH]c2c1 (configuration not stated)	9.5%[38.3 µM]	-3	0.1	4	6	0.7
CCOC(=O)Cc1csc(NC(=O)CSc2nc(N)c3c(C)c(C)sc3n2)n1	4.2%	-5	1.7	-16	-20	0.5
CC(=O)Nc1cc(C(=O)N2CCN(C)CC2)ccc1Sc1ccc(C)cc1	-1.3%[38.3 µM]	-11	-0.4	3	-2	-3.4

# (further entries)
SMILES,PINK1 expr mod,D2 potentiator,TRPML1 agonist,Six1-Eya2 blk,CtBP-E1A blk,D2 agonist
COc1cc(OC)cc(C(=O)NNC(=O)CCC2CCCC2)c1,0.4%,-9,1.0,8,-2,-1.7
Cc1ccc(S(=O)(=O)N(Cc2cccc(C(F)(F)F)c2)C(=O)N2CCN(C)CC2)cc1,-0.2%,-7,0.2,10,7,-3.6
Cc1ccc(-c2cc(C(=O)Nc3cc(C)on3)c3ccccc3n2)cc1,11%,-7,1.6,2,-10,-0.1
Cc1ccccc1NC(=O)c1ccccc1NS(=O)(=O)c1cccc2cccnc12,-1.3%,14,0.1,-3,3,-2.9
Cc1ccc(C)c(S(=O)(=O)N2CCN(CC(=O)Nc3cc(C)on3)CC2)c1,0.3%,19,-1.3,-1,3,-3.4
C=CCNC(=O)c1c2c(nc3ccccc13)-c1ccccc1CC2,0.6%,-20,-0.8,-2,6,-3.2
Cc1c(/C=N/O)sc2ccccc12,-0.5%,-7,0.6,-4,-2,-1.5
COCCN1C=C2C(=O)C(C)(OC(=O)CCC(=O)OC)C(=O)C=C2C=C1C1CC1 (configuration not stated),0.6%,?,-0.6,-4,2,11
CCCOc1ccc(C2=CSC3=NCCN23)cc1,-1.8%,-2,0.4,-1,-5,-0.6
COc1ccc(NC(=S)N(CCc2c(C)[nH]c3ccccc23)Cc2cccnc2)cc1,0.1%,-1,-0.1,-10,-25,-3.8
CC(=O)Nc1ccc(NS(=O)(=O)c2ccc(Cl)s2)cc1,-0.4%&1.1%,-4,0.3&-0.1,7,-8,3.3
COc1cccc(CNC(=O)[C@H](CC(C)C)NC(=O)N2CCn3c2nc2ccccc23)c1,-1.4%,-7,-1.5,-3,3,1.1
COC(=O)c1cccc(C23CC4(C2)[C@H](CN(Cc2ccc(-c5ccccc5)cc2)[C@@H]4c2ccccc2)C3c2ccc(Cl)nc2)c1 (some centres not stated),4.2%,6,-0.4,-6,.,2.2
CC(C)n1c(N2CCN(C(=O)N3CCCCC3)CC2)nc2ccccc21,3.6%,-1,0.0,-5,-6,-0.2
CCOC(=O)c1nc2sc(C)c(C)c2c(=O)[nH]1,21%[38.3 µM],-2,0.3,0,2,-2.9
CC(C)c1nnc(SCC(=O)NCc2ccc3c(c2)OCO3)n1C,-0.9%,-4,-0.4,-6,0,-4.6
NC(=O)C1CCN(C(=O)c2ccc(NS(=O)(=O)/C=C/c3ccccc3)cc2)CC1,-1.2%,1,0.1,-8,9,-5.2
O=c1cc(CO)oc(CN2CCN(c3ccccc3)CC2)c1O,0.1%,-15,-0.4,3,0,3.0
Cc1noc(C)c1S(=O)(=O)N1CCC(Cc2ccccc2)CC1,0.0%,1,-0.2,11,7,-2.4
CCOC(=O)C1CCCN(S(=O)(=O)c2c(C)c(C)cc(C)c2C)C1 (configuration not stated),0.3%,-2,1.7,11,17,-1.3
CCCN(CCC)CCCNC(=O)c1ccc2c(c1)N(CC)C(=O)c1ccccc1S2=O (configuration not stated),-0.6%,-6,1.7,23,0,-1.0
CCOc1ccc(S(=O)(=O)N2CCCC(C(=O)NCc3cccnc3)C2)cc1C (configuration not stated),-1.6%,-3,0.4,1,5,3.9
CCNc1ccc(C(=O)Nc2ccc3nc(C)sc3c2)cc1[N+](=O)[O-],3.5%,15,0.9,0,-3,5.5
Cc1cccc(C(=O)NNC(=O)c2ccc(O)cc2)c1,0.3%,-1,0.0,4,-1,6.3
COc1ccc(C)cc1S(=O)(=O)N(CC(=O)N1CCCC1)c1ccccc1,6.2%[38.3 µM],1,1.1,-1,1,-0.6
CCCCCn1cnnc1SCC(=O)c1ccc2c(c1)OCO2,0.8%,-5,-0.1,3,.,-3.4
O=C(Nc1ccc(Cl)cc1)c1ccco1,1.9%,-16,0.0,-8,5,8.3
COc1ccc(/C=C/C(=O)N(c2ccccn2)C2CCCCC2)cc1OC,2.1%,-14,-0.1,-1,2,-3.7
COc1cc(/C=N/Nc2nc3c(c(=O)n(C)c(=O)n3C)n2Cc2ccccc2)ccc1OC(=O)c1ccco1,3.6%,29,0.8,-16,16,3.5
CC(C)(C)c1ccc(C(=O)Nc2ccccc2NC(=O)c2ccco2)cc1,-0.8%,-20,1.4,-9,-3,-4.9

# Compound profiles (already shown).
# O=c1cc(CO)oc(CN2CCN(c3ccccc3)CC2)c1O reads PINK1 expr mod: 0.1%; D2 potentiator: -15; TRPML1 agonist: -0.4; Six1-Eya2 blk: 3; CtBP-E1A blk: 0; D2 agonist: 3.0
# CCOc1ccc(S(=O)(=O)N2CCCC(C(=O)NCc3cccnc3)C2)cc1C (configuration not stated) reads PINK1 expr mod: -1.6%; D2 potentiator: -3; TRPML1 agonist: 0.4; Six1-Eya2 blk: 1; CtBP-E1A blk: 5; D2 agonist: 3.9
# CCOC(=O)C1CCCN(S(=O)(=O)c2c(C)c(C)cc(C)c2C)C1 (configuration not stated) reads PINK1 expr mod: 0.3%; D2 potentiator: -2; TRPML1 agonist: 1.7; Six1-Eya2 blk: 11; CtBP-E1A blk: 17; D2 agonist: -1.3

# (continued)
SMILES,PINK1 expr mod,D2 potentiator,TRPML1 agonist,Six1-Eya2 blk,CtBP-E1A blk,D2 agonist
CC(Oc1ccccc1)C(=O)Nc1ccc(S(=O)(=O)N2CCCC2)cc1 (configuration not stated),-0.6%,1,0.7,-4,-2,-2.0
Cc1nc(N2CCN(Cc3ccccc3)CC2)nc2c1C(=O)CCC2,4.5%,-12,0.4,-13,-11,0.2
Cc1cccc(CCN(CC(=O)NC(C)(C)C)C(=O)c2csnn2)c1,0.3%,-6,-0.3,9,3,-2.4
Cc1cc(NCCCn2ccnc2)n2nc(-c3ccc(F)cc3)cc2n1,.,-12,-0.2,-13,11,0.1
O=C(c1ccccc1)c1nn(-c2cccc(Cl)c2)c2nc(-c3ccccc3)cc(=O)n12,?,13,0.4,1,12,-3.0
O=C1c2nc3cc(-c4ccccc4)[nH]n3c(=O)c2CN1Cc1ccccc1,-0.6%,8,0.9,6,.,-3.3
O=C1CC/C=C\C[C@@H](CC(=O)N(CCO)Cc2ccccc2)C(=O)NCCO1,-0.7%,-5,-0.2,-3,-1,-5.7
CCOc1ccc(C(=O)COC(=O)c2nn(CC)c(=O)c3ccccc23)cc1,-1.0%,-1,-0.6,-2,0,-5.5
Cc1ccc(NC(=O)N2CCC(NC(=O)c3ccccc3C)CC2)cc1,-0.2%,-16,-0.6,0,5,-1.1
COc1cc2c(cc1OC)C(C(=O)N1CCCC1)C(c1ccccc1F)N(C)C2=O (configuration not stated),-4.4%,-17,1.8,1,-6,-0.7
Cc1c(CC(=O)NCC(=O)NCC(=O)O)c(=O)oc2c(C)c3oc4c(c3cc12)CCCC4,0.0%,-10,-0.4,-17,-2,-4.8
O=S(=O)(c1ccc(Cl)c(C(F)(F)F)c1)N1CCN(CC(O)COc2ccccc2F)CC1 (configuration not stated),16%,-12,0.3,-3,-13,-2.0
CCOC(=O)c1cccc(NC(=O)CSc2nc3ccccc3c(=O)n2CCOC)c1,5.2%[38.3 µM],-1,0.8,0,-1,-5.1
O=[N+]([O-])c1ccc(C2CCCC/C2=N/OCc2ccccc2F)c([N+](=O)[O-])c1 (configuration not stated),9.6%,5,1.7,?,?,1.9
CCCc1[nH]nc2c1C(c1ccc(OC(=O)c3ccco3)cc1)C(C#N)=C(N)O2 (configuration not stated),-0.5%[38.3 µM],-6,1.0,-1,-7,-3.0
COc1ccc(C(=O)O/N=C(/C)c2cccs2)cc1,0.5%,-17,1.3,-7,7,-3.6
O=C(/C=C/c1ccco1)N(Cc1ccc(F)cc1)C1CCS(=O)(=O)C1 (configuration not stated),-0.4%,-3,-1.0,3,0,-6.0
COc1ccc(C(=O)OCCN2CCOCC2)cc1OC,-0.2%,-18,-1.0,-1,4,-1.4
COc1ccc([C@H]2C[C@@H](n3cc(-c4ccc(F)cc4)nn3)[C@H](O)CN2C(=O)c2cccs2)cc1,-0.8%,-5,5.9,-8,2,-2.4
NC(=O)CC(NC(=O)c1cccc(Br)c1)c1ccc(N2CCC(N3CCCCC3)CC2)c([N+](=O)[O-])c1 (configuration not stated),1.5%,-13,-0.3,0,4,-2.2
Cc1nn(-c2ccccc2)c(Cl)c1C1C(C#N)=C(N)Oc2n[nH]c(C)c21 (configuration not stated),-0.2%,-4,-0.7,-12,-4,-1.2
Cc1ccc(CN2CC(C(=O)NCCCSc3ccccc3)CC2=O)cc1 (configuration not stated),2.0%,-10,-0.8,2,15,0.3
